Screening data deposited in PubChem BioAssay by several laboratories.
FPR ligand: binds the human formylpeptide receptor FPR | P21462 | FPR-expressing cells, fluorescent ligand binding, flow cytometry | inhibition, %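 (tested at 6.7 µM)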 | 0.74% of 24,000 active | AID 440;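 also: 0% = buffer wells and 100% = receptor blocker peptide wells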
Target sequence (P21462 whole entry, looked up): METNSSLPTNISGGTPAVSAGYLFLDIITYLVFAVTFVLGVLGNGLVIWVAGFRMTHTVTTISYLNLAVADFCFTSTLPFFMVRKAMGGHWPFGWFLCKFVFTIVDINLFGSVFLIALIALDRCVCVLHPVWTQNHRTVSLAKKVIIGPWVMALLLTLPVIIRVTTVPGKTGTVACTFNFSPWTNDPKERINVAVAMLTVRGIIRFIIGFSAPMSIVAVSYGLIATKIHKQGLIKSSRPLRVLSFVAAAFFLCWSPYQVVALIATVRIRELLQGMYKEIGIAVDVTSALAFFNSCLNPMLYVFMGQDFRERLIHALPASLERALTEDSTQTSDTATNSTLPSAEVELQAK
VCAM-1 down imaging: suppression of endothelial VCAM-1 upregulation – imaging, high-content imaging, pooled HUVEC, TNFa stimulus (AID 456). one-dose inhibition, % at 5 µM; IC50 in µM for titrated hits. HUVEC TNFa-induced VCAM-1 surface expression, immunofluorescence imaging; numbers were filed only for top-ranked candidate wells. 0.2% of 10,000 active;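 active = top tenth filtered wells with inhibition above zero that passed visual or statistical confirmation; inactive = the rest, including hits rejected on review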;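 also: 0% = stimulated vehicle wells and 100% = unstimulated cells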
VCAM-1 inhibition: inhibitors of TNFa-induced VCAM-1 surface display, cell-based, plate reader, pooled HUVEC, TNFa stimulus (AID 454); HUVEC TNFa-induced VCAM-1 surface immunofluorescence, plate reader; numbers were filed only for top-ranked candidate wells; inhibition, % at 5 µM; 0.2% of 10,000 active;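 active = compound among top-ranked inhibitors of TNF-induced VCAM-1 adhesion protein staining, with the hit upheld by image or statistical review; inactive = the rest, including hits rejected on review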;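 also: 0% = TNFa with vehicle and 100% = cells without TNFa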
FPRL1 binder: human FPRL1 ligand, with FPR counter-screen; inhibition, %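 (tested at 6.7 µM)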; 0.3% of 24,000 active; AID 441; FPRL1-expressing cells, fluorescent ligand binding inhibition, flow cytometry;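 also: 0% = buffer alone and 100% = receptor blocker peptide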
Target sequence (P25090 whole entry, looked up): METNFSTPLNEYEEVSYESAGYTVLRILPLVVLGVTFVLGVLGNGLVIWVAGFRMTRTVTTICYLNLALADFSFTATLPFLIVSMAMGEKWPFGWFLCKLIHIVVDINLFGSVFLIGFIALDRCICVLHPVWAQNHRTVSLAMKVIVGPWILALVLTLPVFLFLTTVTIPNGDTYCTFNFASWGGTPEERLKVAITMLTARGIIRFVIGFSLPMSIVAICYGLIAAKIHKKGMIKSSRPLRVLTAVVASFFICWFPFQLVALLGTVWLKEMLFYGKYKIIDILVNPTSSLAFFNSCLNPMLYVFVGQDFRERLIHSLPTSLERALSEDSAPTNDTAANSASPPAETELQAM
VCAM-1 augmentation: boosters of cytokine-driven VCAM-1 levels – imaging, high-content imaging, pooled HUVEC, TNFa stimulus (AID 457) | calls only | Pooled HUVEC, TNFa-induced VCAM-1 immunofluorescence imaging; hits of this screen are not shown here | 0.2% of 10,000 active;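 active = a top-ranked rise in VCAM-1 staining upheld on image or statistical review; inactive = the rest, including candidates rejected on review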;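 also: compounds tested at 5 µM in the well; cells exposed to compound for 24 hours before fixing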
Numbers without * were called inactive; i = inactive; . = no result given.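 The calls were made as follows, unless noted: active = mean above 30%; inconclusive = self-fluorescent; inactive = the rest.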 An excerpt; rates above refer to the full screens.

The line under a structure holds: FPR ligand	VCAM-1 down imaging	VCAM-1 inhibition	FPRL1 binder	VCAM-1 augmentation
> CC1CCc2nn(CC(=O)NCc3ccc(F)cc3)cc2C1 (stereo unspecified)
  -12	i	i	4	i
> COc1ccccc1C(=O)N1CCN(C(=O)COc2cccc(C)c2)CC1
  -2	i	i	1	i
> O=C(Nc1ccccc1Cl)c1ccc2c(c1)N(Cc1ccc(F)cc1)C(=O)CS2=O (stereo unspecified)
  0	.	.	1	.
> N=c1c(C(=O)NC2CCCC2)cc2c(=O)n3ccccc3nc2n1C1CCCC1
  1	.	.	-8	.
> COc1cc2c(C#N)c(N3CCOCC3)nc(N)c2c(N)n1
  -6	i	i	3	i
> COc1ccc(-c2cc(C(=O)Nc3cc(OC)c(OC)c(OC)c3)no2)cc1OC
  8	.	.	6	.
> Cc1cccc(CN2CCC(CNC(=O)C3CCCN(S(=O)(=O)c4cnc[nH]4)C3)CC2)c1 (stereo unspecified)
  -4	i	i	1	i
> CCOc1cc2[nH]c(=S)n(CCOC)c(=O)c2cc1OCC
  1	.	.	6	.
> CCN1CCCC1CNC(=O)CSCc1nc(-c2ccccc2C)oc1C (stereo unspecified)
  -1	.	.	0	.
> CCC(=O)N1C(C(=O)N2CCCC2)CSC1c1ccc(OC)cc1 (stereo unspecified)
  -1	.	.	-5	.
> COc1ccccc1C1/C(=C(/O)c2ccccc2)C(=O)C(=O)N1CC(C)C (stereo unspecified)
  63*	i	i	-4	i
> CC1=NC(C)Cc2ccccc21 (stereo unspecified)
  -3	.	.	-4	.
> O=C(CSc1oc(-c2ccco2)nc1S(=O)(=O)c1ccc(Cl)cc1)NCC1CCCO1 (stereo unspecified)
  -7	.	.	-7	.
> CCOC(=O)c1c(C)n(C)c2ccc(OCC(O)CN3CCN(C)CC3)cc12 (stereo unspecified)
  1	.	.	0	.
> COCCOC(=O)C1=C(N)OC2=C(C(=O)CC(C)(C)C2)C1c1cccnc1 (stereo unspecified)
  2	i	i	1	i
> Cc1ccc(S(=O)(=O)NC(CC(=O)O)c2ccco2)cc1 (stereo unspecified)
  0	.	.	7	.
> COc1ccc(S(=O)(=O)CCC(=O)N2CC(=O)N(CCc3ccccc3)C(=O)C2)cc1
  10	.	.	2	.
> COc1ccccc1-n1c(=O)[nH]c2c(C(N)=O)nc(-c3cccnc3)nc21
  11	i	72	10	i
> CC(=O)NC1(C(F)(F)F)C(=O)NC(C)=C1C#N (stereo unspecified)
  -6	.	.	-2	.
> COc1ccc(NC(=O)c2cc3ccccn3n2)cc1
  6	.	.	2	.
> CCCS(=O)(=O)N1CCCC(C(=O)N2CCC(Cc3ccccc3)CC2)C1 (stereo unspecified)
  21	i	i	28	i
> Cc1cc(C)n(CC(=O)n2c3c(c4ccccc42)CCCC3)n1
  -2	i	i	3	i
> O=S(=O)(NCCC1=CCCCC1)c1cccc2nsnc12
  9	.	.	-12	.
> Cc1ccc2[nH]c(=O)c(-c3noc(C(C)C)n3)cc2c1
  -3	.	.	-3	.
> CCN(CC)S(=O)(=O)c1ccc2[nH]cc(C(=O)NCCC3=CCCCC3)c(=O)c2c1
  8	i	i	-2	i
> CCN(CC)CCn1c(OC)cc(=O)[nH]c1=O
  10	i	i	-1	i
> Cc1nnc(SCC(=O)Nc2cc(C(F)(F)F)ccc2N2CCOCC2)o1
  -1	i	i	0	i
> CC(C)(C)OC(=O)N1CCCC1C(=O)NC(Cc1ccccc1)C(=O)O (stereo unspecified)
  6	i	i	2	i
> O=c1c2cn[nH]c2nc(SCc2ccc3c(c2)OCCO3)n1-c1ccccc1
  -13	i	i	-1	i
> CCSc1nnc2c(n1)OC=Nc1ccc(Br)cc1-2
  -1	i	i	2	i
> CCc1ccccc1NC(=O)c1cc(-c2cccc(O)c2)on1
  -6	.	.	-5	.
> CCOc1ccc(C2CC(c3ccc(CC)cc3)Nc3nc(N)nn32)cc1 (stereo unspecified)
  1	.	.	-3	.
> CCOC(=O)c1c(NC(=O)c2cc(C3CC3)on2)sc(C(C)=O)c1C
  -2	.	.	-1	.
> O=C(c1cnc2ccccn2c1=O)N1CCCc2ccccc21
  -7	.	.	3	.
> CC(OC(=O)c1cccc(NS(C)(=O)=O)c1)C(=O)Nc1ccc(N2CCOCC2)cc1 (stereo unspecified)
  4	i	i	0	i
> CC1CCCCN1CCNC(=O)c1ccc2c(=O)n(CCc3ccccc3)c(=O)[nH]c2c1 (stereo unspecified)
  -3	i	i	-6	i
> Cn1c(=O)cc(OCC(=O)NCCCN2CCN(c3ccccc3F)CC2)c2ccccc21
  3	.	.	0	.
> CCOC(=O)C1CCCN(C(=O)CN(c2ccc(OC)cc2)S(=O)(=O)c2c(C)noc2C)C1 (stereo unspecified)
  11	.	.	0	.
> Cc1ccccc1-c1nc(Cc2ccccc2)no1
  -5	i	i	0	i
> CCOC(=O)c1ccc(-n2c(=S)sc3c(=O)[nH]c(C)nc32)cc1
  -7	.	.	1	.
> CCOC(=O)N1CCN(S(=O)(=O)c2ccc(F)c(C(=O)Nc3cc(C)cc(C)c3)c2)CC1
  -5	i	i	2	i
> CC(=O)Nc1nonc1-c1nc2ccccc2n1Cc1ccccn1
  -3	.	.	-7	.
> O=C(CSc1nccn1-c1ccc(Cl)cc1)Nc1ccc2c(c1)OCO2
  4	.	.	-12	.
> CNC(=O)CN(C#N)c1nc(N(C)C)nc(N(C)C)n1
  -6	i	i	-1	i
> O=C(NCc1cccnc1)c1ccc2c(=O)n(CCCN3CCCC3=O)c(=S)[nH]c2c1
  -7	.	.	-3	.
> CCOCCCNC(=O)c1cc2c(-c3ccc(Cl)cc3)nn(C)c2s1
  3	.	.	-2	.
> O=C(Cn1ncn2cccc2c1=O)N1CCCCC1
  -2	.	.	-6	.
> Cc1ccc2nc(NC(=O)CN(C)S(=O)(=O)c3cccc4nsnc34)sc2c1
  -2	i	i	4	i
> CCC(=O)c1cc2c(C)cc(=O)oc2c(C)c1O
  2	.	.	-2	.
> COc1ccccc1OCC(=O)NCC1CCCCC1
  1	i	i	3	i

Other compounds:
The line under a structure holds: FPR ligand	VCAM-1 down imaging	VCAM-1 inhibition	FPRL1 binder	VCAM-1 augmentation
> COC(=O)C1=C(NC(=O)c2cccc(C)c2)CCS1
  -3	.	.	3	.
> COc1ccc(OCCOC(=O)c2cccs2)cc1
  6	i	i	4	i
> CCC(C)(NC(=O)c1ccccn1)C(=O)NC1CCCCC1 (stereo unspecified)
  7	.	.	7	.
> COC(=O)Cn1c2c(c3cc(C)ccc31)CCCC2
  8	i	i	2	i
> O=C(O)c1ccc(CSc2ncn[nH]2)cc1
  -2	i	i	0	i
> COC(=O)NC1CSCC1OC(=O)CN1C(=O)c2ccccc2C1=O (stereo unspecified)
  -6	.	.	1	.
> O=C(Cn1cnc2c(nnn2Cc2ccc(Cl)cc2)c1=O)OCc1ccccc1
  12	.	.	-7	.
> COC(=O)Cn1ncn2cccc2c1=O
  3	.	.	0	.
> O=S(=O)(Nc1ccc2c(c1)oc1ccccc12)N1CCCC1
  2	.	.	-13	.
> CCOC(=O)N1CCC(N2Cc3cccc(C(=O)Nc4ccc(OC)c(OC)c4)c3C2=O)CC1
  -2	.	.	1	.
> O=C(CCn1c(=O)c2sccc2n(Cc2cc(=O)n3ccccc3n2)c1=O)NCc1ccco1
  -2	.	.	2	.
> Cn1c(SC/C=C/c2ccccc2)nnc1-c1cnccn1
  16	i	i	28	i
> CCCN1Cc2cccc(C(N)=O)c2C1=O
  2	.	.	-7	.
> Cc1nc(N)[nH]c(=O)c1CCC(=O)OCC(C)C
  5	i	i	0	i
> COCCn1c(=NC(=O)CSCC(=O)Nc2cc(C)on2)sc2cc(C(=O)OC)ccc21
  -2	.	.	-1	.
> CC(=O)c1cccc(NC(=O)c2cc3ccccn3n2)c1
  4	.	.	-4	.
> COC(=O)c1cc2ccsc2n1CC(=O)NCC1CCCO1 (stereo unspecified)
  8	.	.	7	.
> Cc1nc(-c2cccc(-c3noc(C)n3)c2)no1
  0	i	i	0	i
> CSC(=O)CC(=O)NC(=O)c1ccccc1
  1	i	i	-2	i
> COCCN(C(=O)Nc1ccc(OC)cc1OC)C1CCN(C(C)C)CC1
  0	.	.	-3	.

Four of the compounds above, with each value named:
CCCN1Cc2cccc(C(N)=O)c2C1=O
- FPR ligand: 2
- VCAM-1 down imaging: .
- VCAM-1 inhibition: .
- FPRL1 binder: -7
- VCAM-1 augmentation: .
Cc1nc(N)[nH]c(=O)c1CCC(=O)OCC(C)C
- FPR ligand: 5
- VCAM-1 down imaging: i
- VCAM-1 inhibition: i
- FPRL1 binder: 0
- VCAM-1 augmentation: i
COCCn1c(=NC(=O)CSCC(=O)Nc2cc(C)on2)sc2cc(C(=O)OC)ccc21
- FPR ligand: -2
- VCAM-1 down imaging: .
- VCAM-1 inhibition: .
- FPRL1 binder: -1
- VCAM-1 augmentation: .
CC(=O)c1cccc(NC(=O)c2cc3ccccn3n2)c1
- FPR ligand: 4
- VCAM-1 down imaging: .
- VCAM-1 inhibition: .
- FPRL1 binder: -4
- VCAM-1 augmentation: .

Carrying on:
The line under a structure holds: FPR ligand	VCAM-1 down imaging	VCAM-1 inhibition	FPRL1 binder	VCAM-1 augmentation
> c1ccc2oc(SCc3cn4ccccc4n3)nc2c1
  3	i	i	-4	i
> Cc1cc(NC(=O)c2cc(-c3ccco3)on2)n(-c2ccccc2)n1
  -9	i	i	-7	i
> CCOc1cc(C2C(C(=O)c3ccco3)=C(O)C(=O)N2CCc2ccccc2)ccc1O (stereo unspecified)
  86*	.	.	-4	.
> COc1cccc(-c2nnc(Nc3nc4c(F)cccc4s3)o2)c1
  -1	.	.	-14	.
> O=C(CCN1C(=O)c2ccccc2C1=O)NCCC1=CCCCC1
  -2	.	.	0	.
> CCCCOc1ccc(CSc2n[nH]c(C)n2)cc1
  -1	i	i	2	i
> COc1ccc(-c2cc(C(=O)NCc3cccnc3)no2)cc1OC
  -2	.	.	0	.
> CCn1c(CSc2nnc(-c3cccnc3)n2-c2ccccc2C)nc2cc(C(=O)O)ccc21
  -2	i	i	8	i
> c1ccc(CCNc2ccc3nncn3n2)cc1
  0	i	i	-1	i
> COc1ccc(OC)c(-c2cc(C(=O)Nc3c(C)nn(Cc4ccc(Cl)cc4)c3C)no2)c1
  2	.	.	7	.
> CCOc1ccc(OCC)c(NC(=O)C2CCCN(S(=O)(=O)c3cccs3)C2)c1 (stereo unspecified)
  6	.	.	-5	.
> CCOc1ccc(NC(=O)CN2CCN(CC(=O)Nc3cc(OC)cc(OC)c3)CC2)cc1
  9	.	.	-11	.
> CCOc1ccccc1NC(=O)C1CCCN(C(=O)NCc2ccccc2)C1 (stereo unspecified)
  -2	i	i	-5	i
> Cc1ccccc1Cn1ccc(NC(=O)c2cnn3c(C(F)(F)F)cc(-c4ccco4)nc23)n1
  -4	i	i	-4	i
> C=CCn1c(SCC(=O)Nc2ccc3c(c2)OCO3)nc2ccccc2c1=O
  -6	i	i	-3	i
> CCn1cc(C2=NOC(C(=O)O)C2)c(C)n1 (stereo unspecified)
  6	.	.	11	.
> Cc1noc(COc2ccccc2OCC(O)CNC(C)(C)C)n1 (stereo unspecified)
  -3	i	i	0	i
> CC12CN3CC(C)(CN(C1)C3c1ccc(Br)cc1)C2 (stereo unspecified)
  -9	i	i	-3	i
> O=C(NC1CCN(Cc2nnnn2CCc2ccccc2)CC1)c1ccccc1F
  4	i	i	-5	i
> CCOc1ccccc1Oc1c(C)oc2cc(OC(=O)c3ccco3)ccc2c1=O
  79*	.	.	-4	.
> CCCc1cc(=O)oc2cc3oc(C)c(C)c3cc12
  1	.	.	1	.
> COc1cc(-c2noc(-c3ccccc3C(=O)NCc3ccco3)n2)cc(OC)c1OC
  -5	i	i	-3	i
> O=C(NCc1cccnc1)c1noc2c1CCCC2
  -5	.	.	-1	.
> Cc1oc(-c2ccc(Cl)cc2)nc1CS(=O)CC(=O)NCCCN(C)C1CCCCC1 (stereo unspecified)
  -1	i	i	2	i
